Source: PubChem
RanGTP-Imp inh: inhibitors of RanGTP-importin-beta interaction, primary screen, biochemical, FRET, CFP-Ran, YFP-importin-beta, homogeneous; cell-free CFP-Ran/YFP-importin-beta FRET ratio; inhibition, % (no concentration beside the values); 1.1% of 300,000 active; AID 2216, 2009;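 active means most replicates above 15%; inconclusive means exactly half above 15%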;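 further: 0% = DMSO wells and 100% = Ran loaded with GDP instead of GTP; wells of about 40 µL received 100 nL stock; the first replicate is given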
A1 inh: caspase 3/7 activation in MEF A1-2A-BIM cells, primary screen, A1 inhibitor project, cell-based, luminescence, HTS. Caspase-Glo 3/7 luminescence, 3 h; percent of clofoctol response, vehicle zero. caspase activation, % (test concentration not listed). 0.066% of 330,000 active. AID 2462, 2010;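 active means over half of replicate activation scores above 10%, or exactly half above 10 with the replicate mean above 10; inconclusive means replicate mean below 10 yet half the replicates above 10; inactive means over half of replicates below 10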;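 further: wells of about 30 µL received 50 nL stock; many hits fall short of the cut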
T cruzi repl: inhibitors of intracellular T. cruzi growth, primary screen, luminescence, NIH3T3 host cells; AID 1885, 2009; inhibition, % (test concentration not listed); 1.4% of 300,000 active; T. cruzi beta-gal in NIH3T3, 90 h;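 active means mean inhibition across valid replicates above about 55%, limit read from the data; inconclusive means mean below that limit but half or more replicates reach it; inactive means mean below it, under half of replicates reach it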;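 further: signal also drops with host cell toxicity which is not excluded here; 0% = plate median of DMSO wells and 100% = zero luminescence signal; higher percent means less beta-gal luminescence so fewer parasites; stock transfer was 50 nL into about 50 µL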
UCH37 inh: inhibitors of human UCH37 deubiquitinase, primary screen, biochemical, Ub-AMC cleavage, fluorescence | Ubiquitin carboxyl-terminal hydrolase isozyme L5 (Homo sapiens), Q9Y5K5 | purified proteasome/UCH37 | inhibition, % (concentration not given with the values) | 0.33% of 330,000 active;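 active means mean of two replicates above 20%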;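 further: 0% = compound-free wells with enzyme and 100% = wells lacking proteasome; stock transfer was 100 nL into about 20 µL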
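system = Proteasome-associated human UCH37 deubiquitinase | amount = 0.15 nM proteasome as dispensed | medium = pH 7.4 Tris-HCl (50 mM) with ovalbumin, ATP-MgCl2, DTT | incubation = 30 min preincubation with enzyme, 25 min cleavage at room temperature | detection = AMC fluorescence 355/460 nm | read-out basis = percent inhibition | controls = no-proteasome and no-compound wells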
LANA-H2A inh: blockers of LANA interaction with H2A/H2B – biochemical, FP readout, HTS, primary screen; AID 2629, 2010; cell-free LANA-H2A/H2B peptide, fluorescence polarization; Protein LANA1 (Human herpesvirus 8 type P (isolate GK18)), Q9QR71; inhibition, % (concentration not given with the values); 0.6% of 320,000 active; in the data active means inhibition mostly above about 10%, no sharp cut-off; inactive means mostly below about 6.7%;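 further: stock transfer was 7.5 nL into about 10 µL; 0% = median of vehicle wells and 100% = median of positive control wells; one replicate is shown; the record names a cut of 25% in any replicate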
Target sequence (Q9QR71 whole entry, looked up): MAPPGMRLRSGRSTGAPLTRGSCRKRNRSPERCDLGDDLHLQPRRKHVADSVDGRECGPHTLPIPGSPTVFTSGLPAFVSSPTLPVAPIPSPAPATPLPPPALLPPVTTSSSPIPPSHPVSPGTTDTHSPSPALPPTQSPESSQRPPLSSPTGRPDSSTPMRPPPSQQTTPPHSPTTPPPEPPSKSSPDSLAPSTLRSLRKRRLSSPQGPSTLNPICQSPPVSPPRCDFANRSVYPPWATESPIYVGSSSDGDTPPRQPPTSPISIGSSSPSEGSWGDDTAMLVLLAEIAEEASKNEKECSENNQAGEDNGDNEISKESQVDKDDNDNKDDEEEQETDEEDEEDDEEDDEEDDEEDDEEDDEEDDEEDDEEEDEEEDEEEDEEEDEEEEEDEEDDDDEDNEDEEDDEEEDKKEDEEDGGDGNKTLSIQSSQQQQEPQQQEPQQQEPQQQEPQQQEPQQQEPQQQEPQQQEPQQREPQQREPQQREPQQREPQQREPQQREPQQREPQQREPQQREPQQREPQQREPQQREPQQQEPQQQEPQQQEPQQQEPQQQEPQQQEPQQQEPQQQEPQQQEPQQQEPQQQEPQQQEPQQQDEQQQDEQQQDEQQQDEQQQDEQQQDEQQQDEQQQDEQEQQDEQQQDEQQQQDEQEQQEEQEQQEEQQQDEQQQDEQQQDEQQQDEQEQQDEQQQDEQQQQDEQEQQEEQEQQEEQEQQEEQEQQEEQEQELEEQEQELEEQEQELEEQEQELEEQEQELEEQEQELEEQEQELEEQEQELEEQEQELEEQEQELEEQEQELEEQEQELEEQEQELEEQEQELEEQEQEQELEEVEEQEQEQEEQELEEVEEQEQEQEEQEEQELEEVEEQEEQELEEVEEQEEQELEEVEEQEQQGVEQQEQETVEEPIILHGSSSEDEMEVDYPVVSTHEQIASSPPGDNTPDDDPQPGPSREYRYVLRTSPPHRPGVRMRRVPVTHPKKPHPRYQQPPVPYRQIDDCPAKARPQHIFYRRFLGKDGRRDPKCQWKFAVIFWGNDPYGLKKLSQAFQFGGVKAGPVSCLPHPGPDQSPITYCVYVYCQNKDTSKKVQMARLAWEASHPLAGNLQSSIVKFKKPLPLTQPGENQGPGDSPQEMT
Beta cell apopt: inhibitors of cytokine-induced beta cell apoptosis, primary screen, luminescence; INS-1E cytokine-induced death, ATP luminescence, 48 h; percent of positive-control rescue, neutral wells zero; 0.8% of 300,000 active; protection from apoptosis, % (concentration not given with the values);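 active means all replicates at 75% or more, or half of them and the mean; inconclusive means half reach 75% but not the mean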;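 further: 0% = cytokine-treated negative control wells and 100% = positive control rescue; higher means more ATP so stronger rescue from cytokine killing; wells of about 40 µL received 100 nL stock; the first replicate is given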
B2AR ag: beta2AR agonists driving receptor internalization, primary screen, cell-based, FAP fluorogen, flow cytometry. Beta-2 adrenergic receptor (Homo sapiens), P07550. Am2.2-beta2AR cells; reference of the scale not given here. response, % (concentration not given with the values). 0.43% of 340,000 active;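 active means response above a set limit, near 3 SD of response in nonfluorescent compounds, cut at about 42% in these data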;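 further: stock transfer was 100 nL into about 11 µL; a reference agonist was the positive control; negative values mostly stem from fluorescent compounds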
Calb FLC: C. albicans growth inhibition with fluconazole, primary screen, CaCi-2 strain, Alamar Blue fluorescence; C. albicans CaCi-2 (fluconazole-resistant clinical isolate) + fluconazole, 48 h; growth inhibition, % (test concentration not listed); 0.57% of 300,000 active; AID 1979, 2009;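 active means most replicates above 75%; inconclusive means exactly half above 75%; inactive means most below 75%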;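 further: all wells also contain fluconazole at 8 µg/ml as a sub-toxic cotreatment; 0% = median of DMSO wells and 100% = median of geldanamycin control wells; wells of about 8 µL received 7.5 nL stock; the first replicate is given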
Numbers without * were called inactive; ? = inconclusive; · = not tested or not shown. Compounds as they come (roughly 4.3% active in at least one column).

molecule	RanGTP-Imp inh	A1 inh	T cruzi repl	UCH37 inh	LANA-H2A inh	Beta cell apopt	B2AR ag	Calb FLC
O=S(=O)(c1ccc2ccccc2c1)N1CCN(C(=S)Nc2ccccc2F)CC1	-1.2	0.1	-5	0.6	1.4	-2	-10	4
O=C(N/N=C/c1ccc(-c2ccccc2[N+](=O)[O-])o1)c1cccnc1	-1.7	0.6	12	·	-3.5	-4	-2	-5
COc1ccc(OCC(O)CNC(=O)c2ccc(Br)cc2)cc1 (stereo unspecified)	-2.4	1.0	-11	3.2	-1.8	2	-1	?
CC1Cc2cc(S(=O)(=O)N3CCC(C(N)=O)CC3)ccc2N1C(=O)C1CC1 (stereo unspecified)	18*	-1.4	4	-1.7	1.4	-5	-5	21
CCCCN(C)CCNC(=O)c1ccc(Cn2c(=S)[nH]c3ccc(Br)cc3c2=O)cc1	5.6	-1.3	77*	1.5	-3.6	2	31	-1
CSc1ccc(/C=C/C(=O)N2CCN(c3ccccn3)CC2)cc1	2.6	0.2	-15	-12	-4.7	6	2	4
Cc1cc(NC(=O)C2CC(=O)N(c3cccc(C)c3C)C2)no1 (stereo unspecified)	6.2	0.8	-14	4.2	2.2	·	-8	0
CCN1CCN(C(c2cccs2)C(C)NC(=O)c2cccc(OC)c2)CC1 (stereo unspecified)	1.8	0.0	-9	4.8	0.9	-4	-5	2
Cc1ccccc1C(=O)Nc1nnc(SC(C)C)s1	1.6	-2.6	10	-0.6	0.5	-6	-9	10
O=C(O)CCC(=O)Nc1ccc(-c2nnc(-c3ccco3)o2)cc1	-0.3	-2.0	4	-100	-0.5	·	2	-4
COc1ccc(NC(=O)CC(NCc2ccccn2)C(=O)O)cc1 (stereo unspecified)	3.2	-0.1	-10	-1.6	-0.9	-16	5	4
CCC(C(=O)NCc1ccccc1OC)n1nc(C)n2c(cc3occc32)c1=O (stereo unspecified)	-3.3	0.9	5	1.3	2.5	·	-12	22
CCOc1ccccc1Nc1ncnc2ccc(Br)cc12	3.7	1.4	-4	-75	-3.9	-5	1	8
CC(O)CNCCNCc1cccs1 (stereo unspecified)	-0.5	0.2	-3	4.3	-1.7	·	-2	-37
CC(C)c1ccc(NC(=O)COC(=O)CCC(=O)c2cccs2)cc1	-3.5	0.4	-13	0.4	-2.4	-3	0	-24
CCN(C(=O)CSc1nc2ccccc2c(=O)n1-c1ccc(C)cc1)C1CCS(=O)(=O)C1 (stereo unspecified)	0.2	0.1	19	-0.7	7.2	-4	4	-5
COc1ccccc1-n1c(C)nc2cc(C(=O)NCc3ccc4c(c3)OCO4)ccc21	-9.9	0.2	24	0.3	0.5	·	3	5
CCc1nn(CC(=O)NCCCN(Cc2ccccc2)C(C)C)c(=O)c2cc3sccc3n12	·	0.6	·	2.1	0.6	0	8	·
COc1ccc(N2C(=O)CC(N3CCN(c4ccc(Cl)cc4)CC3)C2=O)cc1 (stereo unspecified)	-2.7	-0.2	-12	2.1	3.6	-7	1	2
CC(NC(=O)CN1CCCC1)C12CC3CC(CC(C3)C1)C2 (stereo unspecified)	-1.6	0.9	18	0.7	-3.5	-3	-1	-12
C/C(N)=C(/C#N)C(=O)COC(=O)c1ccccc1O	0.4	-0.9	-9	0.6	0.2	-2	3	-12
O=C(Cn1ccc2ccccc2c1=O)Nc1ccc2c(c1)OCO2	9.4	1.5	8	1.1	1.2	0	-12	-4
C=CCN1C(=O)C(O)=C(C(C)=O)C1c1ccccc1F (stereo unspecified)	0.9	0.0	-1	8.1	3.6	-2	-1	-10
Cc1cc(C)cc(NC(=O)N2CCCN(Cc3c(F)cccc3Cl)CC2)c1	-4.5	-0.6	41	2.6	-0.1	-2	2	0
COC(=O)c1ccc(C)c(NS(=O)(=O)c2cn(C)nc2C)c1	-1.7	-0.6	0	6.1	6.0	-8	5	3
Cc1cc(C)n(-c2nc3sc4c(c3c3nnc(SC(C)C)n23)CC(C)(C)OC4)n1	·	0.0	·	-33	0.2	3	-14	·
O=C(C1=C[C@H](c2coc3ccccc3c2=O)C[C@H](OCc2ccc(CO)cc2)O1)N1CCOCC1	0.8	-0.5	-17	0.5	-1.0	2	-14	14
CC(=O)Oc1ccc(N(C(C)=O)S(=O)(=O)c2ccc(Cl)cc2)c2ccccc12	?	-0.5	-9	0.9	-15	14	7	20
CC(C)CC(NC(N)=O)C(=O)NCc1ccccc1Cl (stereo unspecified)	-2.9	0.8	5	-1.8	1.1	-3	17	-24
CCNC(=O)c1ccc(NC(=O)CC2SC(N3CCCCC3)=NC2=O)cc1 (stereo unspecified)	·	-0.4	·	3.7	-3.6	1	1	·

Shown as a hit in RanGTP-Imp inh, among the entries above:
compound	RanGTP-Imp inh	A1 inh	UCH37 inh	LANA-H2A inh	B2AR ag
CC1Cc2cc(S(=O)(=O)N3CCC(C(N)=O)CC3)ccc2N1C(=O)C1CC1 (stereo unspecified)	18*	-1.4	-1.7	1.4	-5

The listing picks up, repeating the 3 entries before the break.
molecule	RanGTP-Imp inh	A1 inh	T cruzi repl	UCH37 inh	LANA-H2A inh	Beta cell apopt	B2AR ag	Calb FLC
CC(=O)Oc1ccc(N(C(C)=O)S(=O)(=O)c2ccc(Cl)cc2)c2ccccc12	?	-0.5	-9	0.9	-15	14	7	20
CC(C)CC(NC(N)=O)C(=O)NCc1ccccc1Cl (stereo unspecified)	-2.9	0.8	5	-1.8	1.1	-3	17	-24
CCNC(=O)c1ccc(NC(=O)CC2SC(N3CCCCC3)=NC2=O)cc1 (stereo unspecified)	·	-0.4	·	3.7	-3.6	1	1	·
CCC(C)NC(=S)N1CCN(Cc2ccccc2)CC1 (stereo unspecified)	?	0.0	2	3.9	-0.3	1	-1	30
Cc1nn(C)c(Cl)c1NC(=O)OCc1ccc(Cl)cc1Cl	4.6	0.5	-15	2.4	1.3	38	3	-6
CC1CCC(N2CCN(c3ncccn3)CC2)CC1 (stereo unspecified)	?	0.7	-2	3.5	-1.8	-8	7	-27
CC1=NN(C(C#N)c2ccccc2O)C(C)(C)C1 (stereo unspecified)	0.4	-0.4	-6	2.7	1.1	-2	16	-10
CN1C(=O)COc2ccc(C(=O)c3ccccc3C(=O)O)cc21	-2.6	1.4	-4	4.5	8.8	-6	-4	19
COc1ccc(N2CCN(c3cc(C)c4ccccc4n3)CC2)cc1	2.5	-0.2	17	-112	-0.6	5	3	22
O=C(Nc1ccc(CN2CCCCC2)cc1)c1cc(Br)ccc1Cl	-2.1	0.3	35	0.8	-6.6	1	12	-42
CCCn1nnc(NC(=O)C(C)C)n1	8.5	0.7	1	4.2	0.6	-3	5	6
CC1Cc2nc(SCC(=O)N3CCN(c4ccccc4)CC3)n(C)c(=O)c2S1 (stereo unspecified)	1.8	0.3	16	7.9	-3.5	-3	2	3
CSc1ccccc1C(=O)N(C)Cc1ccccc1	?	0.5	-1	4.3	5.4	-6	3	-13
CCN(CC)C(=S)NC(=O)c1ccc(F)cc1	2.0	0.1	-10	2.9	-0.2	0	-2	-2
CCc1ccc(/C=C2\Oc3ccc(C(=O)OC)cc3C2=O)cc1	0.1	-0.2	0	3.0	-0.1	-3	6	12
Cc1cccc(NC(=O)NC(=S)NC(=O)c2ccccc2)c1	-1.5	-2.8	3	0.0	1.5	6	9	28
CCC(C)C(NC(=O)C1CCC(C)CC1)C(=O)NCCCN1CCCCC1CC (stereo unspecified)	3.5	1.2	10	3.6	0.0	-3	1	9
CCN(CC)CCCNC(=O)Cc1c(C(=O)O)n(C)c2ccccc12	0.4	0.0	-11	0.5	4.7	2	-11	-5
O=C(NCCc1ccccc1)c1cccs1	-3.1	0.8	6	4.9	-2.7	4	-7	7
COc1ccc(-c2cc(C(N)=O)nc(N3CCCCCC3)n2)cc1	5.5	-0.4	10	-5.6	-0.5	-14	5	3
CCOc1ccc(NC(=O)CN(C)C(=O)CSCc2ccc(C)cc2)cc1OCC	-1.6	1.0	44	1.7	-2.0	·	-5	-3
C(#Cc1ccccc1)C[N+]1(CC#Cc2ccccc2)CCCCC1	1.9	1.0	66*	3.9	-4.5	·	2	82*
Cc1cc(N2CCCCC2)nc(N2CCCCC2)n1	-0.6	0.7	3	3.1	0.0	-3	-2	-11
O=C(c1ccccc1)N(Cc1nc2ccccc2c(=O)[nH]1)C1CCCCC1	-1.5	-0.6	2	1.0	3.2	·	-3	36
CCCOc1nc(C)cc(COC)c1C(N)=O	4.6	0.3	0	-0.8	-0.6	2	-2	14
O=c1[nH]c(CN2CCc3ccccc32)nc2scc(-c3cccs3)c12	-0.8	0.1	-1	-1.4	-2.0	1	6	-6
COc1ccc(NC(=O)CSc2nccn2Cc2ccccc2)c(OC)c1	-8.8	0.8	11	6.7	-2.4	-7	-7	5
COC(=O)c1ccc(/C=N/NC(=O)C(=O)NCC2CCCO2)cc1 (stereo unspecified)	-1.7	0.3	-3	·	0.9	4	6	-2
COc1cc(NC(=O)c2cc(C)on2)cc(OC)c1OC	-4.1	0.1	-34	-0.4	-7.1	-4	0	5
COc1cccc(-n2nnnc2SCC(=O)NC2CCCC2)c1	-1.2	0.1	-6	1.8	6.9	·	1	-15
Cc1ccc(NC(=O)c2ccc(NC(=O)C3CCCCC3C(=O)O)cc2)cc1 (stereo unspecified)	-1.5	0.6	-13	4.8	-2.9	-3	16	-5
COc1cccc(NC(=O)CN(C)C(=O)Cc2ccc(Cl)cc2Cl)c1	0.0	-0.3	6	2.2	-9.6	0	-2	-14
COc1ccc(/C=C2\SC(=S)N(CCC(=O)N3CCCCC3CCO)C2=O)cc1 (stereo unspecified)	2.8	-0.7	-7	4.3	1.2	-33	4	18

Next records follow.
molecule	RanGTP-Imp inh	A1 inh	T cruzi repl	UCH37 inh	LANA-H2A inh	Beta cell apopt	B2AR ag	Calb FLC
Cc1ccc(C)c(NC(=O)C(Sc2nc3ccccc3c(=O)n2CC(C)C)c2ccccc2)c1 (stereo unspecified)	4.6	0.0	3	0.7	0.7	5	12	-3
COc1ccc(NC(=O)CC2SC(=O)NC2=O)cc1 (stereo unspecified)	-0.8	0.1	-5	1.2	-6.3	1	2	-10
CC(=O)c1ccc(COC(=O)c2ccccc2NC(=O)C(C)C)cc1	-4.8	-0.3	8	3.2	-1.0	-2	·	14
Cc1ccc(N/N=C2\CC(=O)c3ccccc32)cc1Cl	1.5	-0.5	3	·	5.5	31	·	-3
Cc1cccc(C)c1NC(=O)Cn1c(CN2CCCCC2)nc2ccccc2c1=O	-4.1	-0.1	1	3.5	1.2	-4	-2	2
